# AID923: qHTS Assay for Allosteric/Competitive Inhibitors of Caspase-1: Spectroscopic Profiling in AFC Spectral Region; compound fluorescence, AFC spectral region (405/520 nm); almost no hit is shown here; Potency, µM (top dose mostly 57.5 µM), for inactives: at the highest dose fluorescence increase, actives largely listed as activators; 75,000 compounds, 1.1% hits; active = well fitted activation curve with a large enough effect; inconclusive = small, poorly fitted or top-dose-only effect;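 note: potency is the fitted concentration of half-maximal effect; 0% is about no effect; scaled to a free AFC standard on each plate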
#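 Compound autofluorescence profiled at 405 nm ex/520 nm em during kinetic caspase 1 run (50 nM enzyme, 5 uM Ac-WEHD-AFC, HEPES pH 7.5, 10 mM DTT). Titration up to 57 uM; baseline from regression intercept, normalized to AFC standard curve.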
# A488 fluor: compound autofluorescence in A488 spectral region; compound autofluorescence, A488 spectral region, dye equivalency; stronger effect = higher value; max dye equivalency, M; 59,000 compounds, 0.1% hits; AID 591; active = above 10 nM dye equivalent; inconclusive = 1 to 10 nM; inactive = 1 nM or less; about half of its hits are not listed in these tables;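 note: highest value over a series up to 38 µM; compound alone in buffer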
#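 Intrinsic compound fluorescence is measured in 100 mM Tris buffer at pH 8.0 following 15 min incubation at room temperature. Intensities at 480 nm excitation/540 nm emission are calibrated to an on-plate A488 concentration series, giving dye-equivalent concentrations.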
# A647 fluor: A647 region autofluorescence; max dye-equivalent concentration, M; Compound fluorescence, A647 channel (570/671 nm), Tris buffer; 59,000 tested, under 10 active; active means above 1 µM dye equivalent; inconclusive means 0.1 to 1 µM; inactive means 0.1 µM or less;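 note: values scaled relative to a standard on each plate; highest value over a series up to 38 µM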
#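 Compound fluorescence was measured in 100 mM Tris buffer, pH 8.0, after 15 min at room temperature, using 570 nm excitation and 671 nm emission filters. Signal was normalized to a per-plate Alexa 647 standard curve and expressed as dye-equivalent concentration at each compound concentration.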
# TSHR ag: agonists of human thyroid stimulating hormone receptor | P16473 | 73,000 compounds, 0.48% hits | AID 926 | Potency, µM (titrated, usually from 57.1 µM), for inactives: at the highest dose activation, most hits filed as activators | HEK293-CNG-TSHR cells (CNG channel as cAMP sensor), membrane potential dye, cAMP; active = well fitted activation curve of enough size with the parental cells flat; inconclusive = any curve in the parental cells; inactive = parental cells flat and receptor cells flat or falling; note: potency is the fitted concentration of half-maximal effect; % of control where 0% means no effect; weak receptor curves with flat parental cells got no call and are not listed
# Target sequence (P16473 whole entry, looked up): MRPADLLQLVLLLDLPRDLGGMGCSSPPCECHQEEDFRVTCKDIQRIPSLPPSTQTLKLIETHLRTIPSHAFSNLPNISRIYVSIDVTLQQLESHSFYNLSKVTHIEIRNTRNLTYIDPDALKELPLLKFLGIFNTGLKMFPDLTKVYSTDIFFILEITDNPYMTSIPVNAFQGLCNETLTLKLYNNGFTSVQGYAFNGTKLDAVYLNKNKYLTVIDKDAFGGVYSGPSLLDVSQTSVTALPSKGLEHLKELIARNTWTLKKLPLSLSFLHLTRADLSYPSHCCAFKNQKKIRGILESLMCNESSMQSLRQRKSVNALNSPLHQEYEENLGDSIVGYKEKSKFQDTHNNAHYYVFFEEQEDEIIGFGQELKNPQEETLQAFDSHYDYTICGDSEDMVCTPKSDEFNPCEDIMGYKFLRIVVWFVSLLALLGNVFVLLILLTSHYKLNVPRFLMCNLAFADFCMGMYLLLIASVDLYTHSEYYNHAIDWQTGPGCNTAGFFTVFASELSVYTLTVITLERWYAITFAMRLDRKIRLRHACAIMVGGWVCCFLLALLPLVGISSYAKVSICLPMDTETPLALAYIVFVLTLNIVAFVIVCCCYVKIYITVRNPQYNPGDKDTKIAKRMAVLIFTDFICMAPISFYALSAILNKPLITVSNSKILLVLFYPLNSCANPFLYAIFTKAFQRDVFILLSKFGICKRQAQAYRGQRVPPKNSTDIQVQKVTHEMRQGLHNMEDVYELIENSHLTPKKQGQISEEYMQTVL
#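 HEK 293 cells stably expressing TSHR and a cAMP-gated CNG channel; parental CNG-only cells as counterscreen. Cells preloaded 60 min with membrane potential dye plus 100 uM RO 20-1724, then compound 30 min; fluorescence read at 590 nm.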
# Resorufin fluor: compound fluoresces in the resorufin spectral region. max dye-equivalent concentration, M. Compound fluorescence, resorufin region 547/598 nm, buffer; stronger effect = higher value. 59,000 compounds, 0.04% hits; active = above 10 nM dye equivalent; inconclusive = 1 to 10 nM; inactive = 1 nM or less; a few of its hits are not listed in these tables; note: highest value over a series up to 38 µM
#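 Compounds in 100 mM Tris, pH 8.0, incubated 15 min at room temperature, then fluorescence read at 547 nm excitation/598 nm emission. Signal converted to dye-equivalent concentration via an on-plate six-point resorufin standard curve, per compound concentration.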
# The depositor's hits bear a star; i = inactive; ? = inconclusive; . = not tested or not shown; & = joins results of further samples; [ ] = dose if it differs, or a comment. These rows are one share of the data; rates above refer to the full screens.
SMILES,AID923,A488 fluor,A647 fluor,TSHR ag,Resorufin fluor
CC(C)[C@@H](C(=O)NCC1CCC(C(=O)O)CC1)n1nnc2ccccc2c1=O (some centres not stated),-2.6%,i,1e-09,1%,i
C/C=C/c1ccc(OCCn2cncn2)c(OC)c1,1.0%,i,1.3e-09,0%,i
COc1ccc(Oc2nc(Oc3ccc(OC)cc3)nc(Oc3ccc(OC)cc3)n2)cc1,1.6%,.,.,0%,.
COc1ccc(OC)c(NC(=O)c2nnn(Cc3ccc(Br)cc3F)c2N)c1,0.4%,.,.,-3%,.
COc1ccc(-n2nc(C(=O)NCc3ccco3)c3c4ccccc4n(C)c3c2=O)cc1Cl,-0.8%,i,3.7e-08,?,i
COC(=O)[C@@]1(Cc2ccc(F)cc2)[C@H]2c3cc(C(=O)N(C)C)n(C)c3C[C@H]2CN1C(=O)c1ccccc1,-0.1%,.,.,?,.
C=CCn1c(=N)n(CC(O)c2ccco2)c2ccccc21 (configuration not stated),0.5%,i,1.5e-08,6%,i
CCOC(=O)c1[nH]c2ccccc2c1NC(=O)CN1CCCCC1,-0.7%,i,1.1e-09,3%,i
O=C(Cn1nnc2c(cnn2-c2ccc(F)cc2)c1=O)OC1CCCCC1,0.3%,i,8.5e-09,?,i
O=S(=O)(NCC1CCCO1)c1cccc(C(F)(F)F)c1 (configuration not stated),1.0%,i,2.6e-08,-62%[inhibitor],i
CC(=O)c1c(C)n(C)c2ccc(OC(=O)c3ccco3)cc12,-0.1%,i,2.1e-08,13%,i
COc1cccc(NC(=O)Nc2cc(C)ccc2F)c1,-1.4%,i,6e-08,-4%,i
CCOCCn1c(CN2CCN(c3ccccc3)CC2)nc2c1c(=O)n(C)c(=O)n2C,0.0%,i,3e-09,11%,i
N#CCCC12CCCCC1=Nc1ccccc12 (configuration not stated),0.9%,i,1.8e-08,-6%,i
Cn1ncc(Br)c1C(=O)Nc1ccc(Cl)cn1,1.5%,i,1.4e-08,-2%,i
CCOc1ccc(NC(=O)C(CC)NC(=O)c2ccccc2CO)cc1 (configuration not stated),1.6%,i,1.6e-09,-3%,i
CCn1c(SCC(=O)Nc2nc3ccc(C)cc3s2)nc2c(c1=O)SC(C)C2 (configuration not stated),1.1%,i,3.2e-08,2%,i
CCOc1cc(N2CCOCC2)c(OCC)cc1NC(=O)CSc1cccc[n+]1[O-],0.9%,i,2.6e-08,-2%,i
CN(C)c1ncnc2ccc(-c3cccnc3)cc12,4.2%,i,1e-09,4%,i
COC(=O)[C@@H]1C[C@H]1[C@@H](NC(=O)c1cccnc1)c1ccccc1,-0.9%,.,.,2%,.
COc1cccc([C@@H]2Oc3ccc(Br)cc3C(=O)[C@H]2O)c1,0.1%[11.5 µM],.,.,-4%[11.4 µM],.
Cc1cc(C(=O)CSc2nnc(Nc3ccccc3F)s2)c(C)n1CC1CCCO1 (configuration not stated),-0.5%,i,1.9e-08,?,i
O=C(CN1C(=O)CCC1=O)Nc1nc(-c2ccc(Cl)s2)cs1,-1.0%,i,1e-09,-7%,i
Cc1ccc(N2CCN(CCc3nc4cc(NC(=O)c5ccco5)ccc4n3C)CC2)cc1,1.0%,i,1e-09,0%,i
Cn1cnnc1Sc1nc2ccccc2nc1NS(=O)(=O)c1ccccc1,0.1%,i,7e-09,0%,i
Cc1[nH]c2ccccc2c1C(=O)COC(=O)C1CCC(=O)N1 (configuration not stated),-2.3%,i,8.1e-09,-1%,i
CN(Cc1ccco1)c1ncnc2ccc(-c3cccnc3)cc12,-0.5%,i,3e-08,2%,i
O=C(CSc1nnc(-c2ccc(F)cc2)o1)N1CCN(C(=O)c2ccco2)CC1,-1.9%,i,1e-09,-7%,i
CCOC(=O)c1ccc(OCC(=O)c2ccc(O)cc2O)cc1,0.8%,i,3.5e-09,3%,i
CC(C)OCCCNC(=O)CCN1C(=O)COc2ccccc21,-0.7%,i,1e-09,2%,i
CCn1nnnc1Oc1ccc(Cl)cc1,-1.6%,i,8.2e-08,4%,i
COc1ccc(C2C(C(=O)Nc3ccccn3)=C(C)Nc3ncnn32)c(OC)c1 (configuration not stated),0.3%,.,.,-4%,.
CCn1c(SCC(=O)c2ccc(OC)cc2)nnc1C(C)NC(=O)c1ccc(OC)cc1 (configuration not stated),-1.7%,i,5.8e-09,?,i
O=S(=O)(c1ccccc1)c1cccc(S(=O)(=O)N2CCCCC2)c1,0.4%,i,1.8e-09,?,i
CC(C)(Sc1ccc(CCN(CCCCC2CCCCC2)C(=O)NC2CCCCC2)cc1)C(=O)O,-2.0%,i,5.8e-08,4%&3%,i
Cc1ccc(NC(=O)C(C)Sc2nnc(-c3cccnc3)o2)cc1 (configuration not stated),-0.6%,i,1e-09,-6%,i
CN1CCN(c2nc(Nc3cccc(C(F)(F)F)c3)nc(N3CCOCC3)n2)CC1,0.5%,i,1e-09,13%[11.4 µM],i
CCOC(=O)CSc1nnc(CNC(=O)c2cccs2)n1Cc1ccccc1,0.8%,i,2.4e-08,-1%,i
COc1cc2c(C#N)c(N3CCN(c4ccccc4OC)CC3)nc(N)c2c(N)n1,1.2%,i,1.3e-08,-10%,i
CCOC(=O)c1sc2ncnc(N3CCN(C(=O)OCC)CC3)c2c1C,0.1%,i,1.8e-08,?,i

# A second format for 2 compounds above:
structure | AID923 | A488 fluor | A647 fluor | TSHR ag | Resorufin fluor
Cn1ncc(Br)c1C(=O)Nc1ccc(Cl)cn1 | 1.5% | i | 1.4e-08 | -2% | i
CCOCCn1c(CN2CCN(c3ccccc3)CC2)nc2c1c(=O)n(C)c(=O)n2C | 0.0% | i | 3e-09 | 11% | i

# (further entries)
SMILES,AID923,A488 fluor,A647 fluor,TSHR ag,Resorufin fluor
COc1ccc(C(=O)N2CCCC2)cc1S(=O)(=O)N1CCOCC1,-2.7%,i,1.1e-08,3%,i
O=C(Nc1ccccc1N1CCCCC1)c1cccc(F)c1,0.9%,i,1e-09,?,i
OCc1cn(-c2ccccc2)nc1-c1cccnc1,0.4%,.,.,-4%,.
CCOC(=O)c1nnn(CC(=O)Nc2cc(F)ccc2F)c1C(=O)OCC,-0.2%,i,1e-09,?,i
CCOc1cc(N2CCOCC2)c(OCC)cc1NC(=O)c1nc2nc(C)cc(C)n2n1,-1.6%,i,4.3e-09,-8%,i
Cc1ccccc1N(C)S(=O)(=O)c1ccc2[nH]cc(C(=O)NCC3CCCO3)c(=O)c2c1 (configuration not stated),0.6%,i,2.4e-09,-5%,i
COc1cc(C(=O)OCC(=O)N(C)Cc2ccccc2)cc(OC)c1OC,0.3%,i,4.7e-08,0%,i
COCCn1c(Sc2ccc(C)cc2)nc2c1c(=O)[nH]c(=O)n2C,-0.2%,i,3.3e-08,13%,i
O=C(NCCCn1ccnc1)c1noc2c1CCc1ccccc1-2,0.0%,i,2.3e-08,.,i
O=C(Cc1cc(=O)[nH]c(=O)[nH]1)NCC1CCCO1 (configuration not stated),-1.6%,.,.,12%,.
Cc1cc(C)nc(SCC(=O)OCN2C(=O)c3ccccc3C2=O)n1,-0.2%,.,.,-9%[11.4 µM],.
CSc1nc2c(c(-c3ccc(O)cc3)c1C#N)CCC2,4.2%,i,1e-08,24%,i
CCOC(=O)c1c(NC(=O)COC(=O)c2c(C)noc2C)sc2c1CCC2,0.2%,i,1.6e-09,?,i
Cc1nc(N2CCOCC2)c2nc(-c3ccccc3)n(CCCN(C)C)c2n1,-1.2%,.,.,5%,.
O=C(NCCc1ccccc1)c1ccc(=O)oc1,2.3%,i,2.5e-08,7%,i
O=C1CCCC2=C1C(c1ccc3c(c1)OCO3)c1c([nH]n(-c3ccccc3)c1=O)N2 (configuration not stated),-1.1%,i,3.6e-09,-8%,i
CCCN1CN(Cc2ccco2)c2nc3ccccc3n2C1,-0.9%,i,9.8e-09,29%,i
CCOC(=O)c1ccccc1N1C(=O)CSC1=S,-1.2%,.,.,3%[11.4 µM],.
CC1CC(=O)c2cnc(Nc3cccc(C(F)(F)F)c3)nc2C1 (configuration not stated),1.4%,i,1.1e-08,11%,i
COc1ccccc1NC(=O)CCN1CCCCCC1,0.3%,i,1.3e-09,0%,i
Br/C(=N\Nc1nn[nH]n1)c1ccncc1,0.5%[11.5 µM],i,4.8e-08,2%[11.4 µM],i
Cc1ccc(S(=O)(=O)N2CCCC2C(=O)OCC(=O)Nc2ccc3c(c2)OCO3)cc1 (configuration not stated),-0.9%,i,2e-08,4%,i
CCc1cc(=O)oc2cc(C)c3c(C)coc3c12,-0.7%,i,4.8e-09,28%,i
Cn1c(CNC(=O)Nc2ccccc2)nnc1SCc1ccccc1,0.1%,i,2.6e-08,-1%,i
COC(=O)c1ccc(-n2nnnc2SCC(=O)NCc2cccc(C(=O)O)c2)cc1,1.0%,i,5.4e-09,5%,i
BrC(Br)C(Br)Br,-0.1%,.,.,?,.
COC(=O)c1ccc(OC)c(CSc2nnc(COc3cccc(C)c3)o2)c1,-0.4%,i,2.5e-09,?,i
Fc1cc2nc(-c3ccncc3)[nH]c2cc1F,-0.6%,i,1.7e-08,0%,i
COc1ccc(C(=O)Nc2cccc(OC)c2)cc1,1.0%,.,.,2%,.
Cc1cc(=O)n2c(-c3ccccc3C)n[nH]c2n1,-0.5%,i,1e-09,0%,i
CNC(=O)c1cc2ccc(OC)cc2oc1=O,2.5%,i,1e-09,6%,i
Cc1csc2nc(CNC(=O)C3CC=CCC3C(=O)O)cn12 (configuration not stated),3.2%,.,.,-1%,.
Cc1ccc(S(=O)(=O)N2CC(=NO)C2)cc1,0.3%,i,2.8e-08,1%,i
Cn1c(CSCc2ccc(F)cc2)nnc1SCC(=O)Nc1nccs1,-0.8%,i,2.7e-08,?,i
COC(=O)/C=c1\sc2ncnn2c1=O,0.0%,i,3.5e-08,?,i
CCN(C(=O)c1ccc(C(C)(C)C)cc1)c1nnc(Cn2nnc3ccccc32)s1,0.1%,i,2.4e-08,?,i
O=c1cnc2cnc(Oc3ccccc3)nc2n1CCc1ccccc1,0.6%,i,1.7e-08,?,i
CCOC(=O)N1CCN(S(=O)(=O)c2ccc3[nH]cc(C(=O)O)c(=O)c3c2)CC1,0.2%,i,4.9e-09,3%,i
CN(Cc1ccco1)c1ccnc(-c2cccc(NS(C)(=O)=O)c2)n1,3.1%,i,1.8e-08,18%,i
Cc1noc(C)c1C(=O)N1CCC2(CCCN(c3ccccc3)C2)CC1,2.6%,i,1.2e-08,3%,i
O=C(Cn1cnc2c(nnn2Cc2ccccc2)c1=O)NCC1CCCO1 (configuration not stated),-1.5%,.,.,5%,.
CCOc1ccc(CC2CC(=O)NC2=O)cc1 (configuration not stated),.,i,2e-09,.,i
COc1ccc(C(=O)NCC(=O)OC2CCCCC2=O)cc1 (configuration not stated),-2.7%,i,3e-08,1%,i

# Reformatted bar-delimited: part of the list above
mol | AID923 | A488 fluor | A647 fluor | TSHR ag | Resorufin fluor
COc1ccc(-n2nc(C(=O)NCc3ccco3)c3c4ccccc4n(C)c3c2=O)cc1Cl | -0.8% | i | 3.7e-08 | ? | i
COC(=O)[C@@]1(Cc2ccc(F)cc2)[C@H]2c3cc(C(=O)N(C)C)n(C)c3C[C@H]2CN1C(=O)c1ccccc1 | -0.1% | . | . | ? | .
C=CCn1c(=N)n(CC(O)c2ccco2)c2ccccc21 (configuration not stated) | 0.5% | i | 1.5e-08 | 6% | i
CCOC(=O)c1[nH]c2ccccc2c1NC(=O)CN1CCCCC1 | -0.7% | i | 1.1e-09 | 3% | i
O=C(Cn1nnc2c(cnn2-c2ccc(F)cc2)c1=O)OC1CCCCC1 | 0.3% | i | 8.5e-09 | ? | i

# Bioassay records as filed in PubChem BioAssay.
